Screens: PubChem BioAssay, several laboratories
PrP UTR inh – suppresses PrP 5' UTR mRNA reporter expression. inhibition, % (no concentration beside the values). AID 488862. cell-based PrP 5' UTR mRNA reporter, plate reader. 340,000 tested, 0.35% active;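 active means every replicate at 50% or more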;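 further: 0 = median of the neutral control wells; tested in H4 reporter cells; numbers are from one replicate; inactives centre near -14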
Sa RN4220 lethal – S. aureus RN4220 growth inhibition | AID 1259311 | inhibition, % (concentration not given with the values) | OD600, 16 h | 330,000 tested, 0.33% active;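 active means z-score of -3 or lower and OD600 up to 0.18 on both plates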;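 further: plate controls were untreated cells for no effect and reference antibiotic for full effect; stock transfer was 100 nL into about 80 µL; one replicate is shown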
Autofluor counter – counter-screen for toxin protease inhibitors: compound fluorescence. compound autofluorescence counterscreen, microsphere flow cytometry; active compounds read high. fluorescence intensity (test concentration not listed). 360,000 tested, 3.1% active;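 active means at least 3 SD above the mean of all compounds, about 16000 in these data; inconclusive means too few beads counted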;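 further: 100 nL of 1 mM stock went into each well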
ugtP null kill – compounds lethal to S. aureus RN4220 ugtP deletion mutant. growth inhibition, % (concentration not given with the values). AID 1259309. OD600 growth, 16 h; some inactives read as strong as hits. 330,000 tested, 0.54% active;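 active means z-score under -3 and OD600 up to 0.15 on both plates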;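 further: plate controls were untreated wells for no effect and antibiotic for full effect; wells of about 80 µL received 100 nL stock; the first replicate is given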
BJeLR lethal – BJeLR cell viability loss. BJeLR (HRASV12) viability, CellTiter-Glo ATP luminescence, 48 h; reference of the scale not given here. inhibition, % (test concentration not listed). 300,000 tested, 0.17% active;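 active means replicate mean above 50%; inconclusive means above 50% but judged a plate artefact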;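 further: 50 nL library stock added to about 25 µL; numbers are from one replicate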
Mtb hypoxia inh – Mtb hypoxia fluorescent reporter inhibition; M. tuberculosis hypoxia-regulated fluorescent reporter, fluorescence; fluorescence inhibition, % (test concentration not listed); 300,000 tested, 0.1% active; AID 1159583;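 active means 35 to 45% if threefold the growth effect, above 45% if 1.5-fold the growth effect; inactive means the rest, general growth blockers included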;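 further: wells of about 50 µL received 100 nL stock; 0% = vehicle wells and 100% = reference inhibitor wells; whole bacteria with a GFP reporter of the hypoxia response; strong numbers were not always called active; many hits fall short of the cut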
Mtb hypoxia inh growth – second read-out of Mtb hypoxia inh, no call of its own (marks repeat the call); growth inhibition, %; measured here: M. tuberculosis growth (absorbance);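 0% = vehicle and 100% = reference antibiotic; read after six days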
* = called active by the depositor; ? = inconclusive; / = no result given; & = joins results of further samples.

Each structure is followed by: PrP UTR inh, Sa RN4220 lethal, Autofluor counter, ugtP null kill, BJeLR lethal, Mtb hypoxia inh, Mtb hypoxia inh growth
O=C(c1cccc(Cl)c1)N1CCN(Cc2ccncc2)CC1
→ -19, -15, 2494, -3, /, 7, 9
O=C(C1=C(O)C(=O)N(Cc2cccnc2)C1c1cccc(Oc2ccccc2)c1)c1ccco1 (stereo not drawn)
→ -17, 13, 9007, 2, /, 7, -1
Cc1ccc(OCCC(=O)Nc2ccc(S(=O)(=O)Nc3nccs3)cc2)cc1
→ -15, 1.2, 2734, 4, /, /, /
Cc1ccc(/C=C/C(=O)OC(C)C(=O)Nc2ccc(Cl)cn2)o1 (stereo not drawn)
→ -16, 2.2, 2371, 3, 7, 3, 2
CCc1ccc(Nc2nc3ccccc3c(=O)s2)cc1
→ -13, -3.5, 5006, -2, 3, -2, -3
CC(c1ccco1)N(C(=O)c1cccc(Br)c1)c1ccccn1 (stereo not drawn)
→ -8, -1.6, 3702, 0, -1, 0, 11
CC[C@]12c3[nH]c4ccccc4c3CCN1C(=O)C(CC(=O)NCCc1ccccn1)C[C@@H]2C(=O)N1CCN(C(=O)c2ccco2)CC1 (stereo partly drawn)
→ 67*, 2.3, 2868, 14, /, 4, -1
COC(=O)c1cnc[nH]1
→ 1, /, 5594, /, 8, /, /
CC(O)C1CNCCN1CCc1cccc(F)c1 (stereo not drawn)
→ /, 4.9, /, -1, /, 9, 3
COC(=O)c1ccccc1COn1c(=O)c[n+]([O-])c2ccccc21
→ -6, 5.5, 5147, 6, -6, /, /
CCCCSc1nnc(CSc2ncccn2)n1C
→ -16, 7.8, 4076, 22, -22, -2, 0
O=C(COc1coc(CN2CCCc3ccccc32)cc1=O)Nc1ccccc1
→ -3, 4.7, 6598, 0, 6, 2, -4
CSc1ccccc1NC(=O)C1CCCN(S(C)(=O)=O)C1 (stereo not drawn)
→ 5, -3.3, 3203, -1, -20, -4, -4
Cc1cc(N)ccc1-n1nc2ccccc2n1
→ -5, 3.1, 6106, -5, -6, 9, 15
CC(NC(=O)c1ccc(Br)o1)c1ccc(-n2ccnc2)cc1 (stereo not drawn)
→ -8, 1.6, 4083, 5, /, 1, 7
C=C1CCC[C@]2(C)C[C@H]3OC(=O)C(CN(Cc4ccc(OC)c(OC)c4)CC(C)O)[C@H]3CC12 (stereo partly drawn)
→ -8, 4.3, 3155, 3, 3, 2, 11
COC(=O)[C@]1(C)N[C@H](CN(C)C(=O)c2ccc(C(C)(C)C)cc2)[C@@H]2C(=O)N(Cc3ccccc3)C(=O)[C@@H]21
→ -18, 0.7, 3466, -1, /, 5, 8
Cn1c(=O)c2c(nc(N3CCC(C(N)=O)CC3)n2CCSc2nc3ccccc3s2)n(C)c1=O
→ -16, 2.6, 3565, 1, -4, 14, 6
COc1ccc(CNS(=O)(=O)c2ccc3oc(C(=O)O)c(C)c3c2)cc1
→ -1, 0.5, 7977, 3, 4, 6, 6
O=C(NCc1cccs1)C1CCCN(C(=O)Nc2ccc(F)cc2)C1 (stereo not drawn)
→ -18, 2.9, 4463, 2, 1, 12, 3
Cc1cnc(C(=O)Nc2ccc(C(=O)N3CCCCC3)cc2)cn1
→ -25, 4.5, 3609, 1, 1, /, /
COc1ccccc1C(NC(C)=O)c1cc(Cl)c2cccnc2c1O (stereo not drawn)
→ /, 2.6, 3176, -13, 34, 15, 2
CCOc1ccc(Br)cc1C(=O)Nc1ccc(C(=O)NCC(C)C)cc1
→ 1, 4.2, 6370, 1, 9, -1, 15
COc1ccc(Cc2nnc(N)s2)cc1OC
→ -18, 3.1, 3645, -1, -21, 16, 19
Nc1ccc(C#Cc2ccc3c(=O)c4ccccc4oc3c2)cc1
→ -17, -4.8, 3166, -21, -3, 11, 1
NC(=O)C(c1ncc(C(F)(F)F)cc1Cl)c1c(Cl)cccc1Cl (stereo not drawn)
→ -18, 5.2, ?, 12, 7, 8, 7
CSc1nnc(NC(=O)c2cc3ccccc3oc2=O)s1
→ -41, 6.0, 5387, 8, 4, 5, 1
Cc1ccccc1NC(=O)CN1C(=O)N/C(=C\c2cccn2-c2cccc(C(=O)O)c2)C1=O
→ -70, /, 4568, /, -7, /, /
O=C(CN1C(=O)C(=O)N(Cc2ccccc2)C1=O)c1ccc[nH]1
→ 0, 2.5, 6168, 2, /, 1, -2
COC(=O)c1c(NC(=O)CSc2nnnn2C)sc(C)c1C
→ -15, 0.1, 11065, 0, -2, 4, 6

Each structure is followed by: PrP UTR inh, Sa RN4220 lethal, Autofluor counter, ugtP null kill, BJeLR lethal, Mtb hypoxia inh, Mtb hypoxia inh growth
COc1cc(C(=O)Nc2cccc(-c3nc4cc(C)cc(C)c4o3)c2)cc(OC)c1OC
→ -18, 6.3, 10469, -2, /, 5, 2
CC(=O)c1cccc(NC(=O)N2C3CCC2CC(NC(=O)Nc2ccccc2)C3)c1 (stereo not drawn)
→ -6, 2.6, 2724, 8, 4, 5, 4
COCCNC(=O)CN1C(=O)CSc2cc(S(=O)(=O)N3CCCCCC3)ccc21
→ -13, 8.1, 3981, 12, 4, 6, 6
N#Cc1c(/N=C/c2ccccc2)oc(-c2ccccc2)c1-c1ccccc1
→ -26, /, 10048, /, 10, /, /
Cc1cc2c(cc1S(=O)(=O)N(C)Cc1ccccc1)OCC(=O)N2
→ -35, -5.4, 5846, -6, 9, 8, 8
Cn1cnc2c1c(=O)n(Cc1ccc(Cl)cc1Cl)c(=O)n2C
→ -3, 2.9, 3347, 4, -6, -3, 4
CC(C)(C)C(=O)NC1CCN(S(=O)(=O)c2cccc(C(F)(F)F)c2)CC1
→ -15, -1.8, 2951, 2, 4, 2, -2
N#Cc1c(NC(=O)CCCl)sc2c1CCCCC2
→ 3, 2.9, 5246, 3, 3, 4, 10
CCOCc1nnc(NC(=O)CSCc2ccccc2)s1
→ -7, 1.9, 20554*, -3, 1, 4, 9
Cc1cc(-n2c(C)cc(C(=O)CCl)c2C)no1
→ -16, 8.8, 4379, -6, 38, 16, 24
CN(C)[C@@H](CO)c1nnc([C@H](Cc2ccc(O)cc2)NC(=O)C2CCNCC2)o1
→ -10, /, 3628, /, -5, /, /
CC(C)CN1CCC(C(=O)NCC2CCCO2)CC1 (stereo not drawn)
→ -12, -1.2, 2859, -2, 7, 6, 11
CCc1c(C)sc(NC(=O)c2noc(C)c2[N+](=O)[O-])c1C#N
→ -23, 22, 2198, -4, 6, 6, 5
COc1cc(C=NN(CCO)C2=NS(=O)(=O)c3ccccc32)cc(OC)c1OC
→ /, 3.2, /, 5, /, -6, 3
CC1CCCC(C)N1C(=O)COC(=O)c1ccccc1O (stereo not drawn)
→ -20, 2.5, 2809, 4, /, 4, -2
CC(=O)c1ccc(Nc2nc(=O)c3cccnc3s2)cc1
→ -23, -7.9, 3624, -7, 5, -14, 6
CC(=O)c1cccc(NC(=O)C(C)OC(=O)C2=NNC(=O)CC2)c1 (stereo not drawn)
→ -3, -1.8, 6092, -4, /, -6, 2
C(#CCN1CCCC1)CN1CCCC1
→ -26, 7.9, 5875, -2, /, 10, -4
Cc1nc2ccccc2nc1N/N=C/c1ccc(O)cc1
→ -53, /, 4380, /, -5, /, /
Cc1cc(C)n2c(nc3ccccc32)c1C(=O)NCc1ccccc1
→ -14, /, 4808, /, 8, /, /
Cc1cccc(NC(=O)CCOc2ccccc2)c1
→ -19, 1.2, 2772, -5, 1, /, /
Fc1cccc(Cl)c1CN1CCN(c2nc3ccccc3s2)CC1
→ -59, 3.9, 4101, 15, 5, 1, -3
Cc1cc2cc(C#N)c(N3CCOCC3)nc2cc1Cl
→ -18, 8.2, 3657, 3, -3, 17, 7
O=C(CCN1CCOCC1)Nc1ccc(F)cc1
→ -20, /, 3642, /, -1, /, /
CCc1ccccc1OCC(=O)Nc1cccc(S(=O)(=O)N2CCCC2)c1
→ -13, 0.7, 4779, -4, /, 3, 6
N#CC1(NC(=O)CN2C(=O)NC(Cc3c[nH]c4ccccc34)C2=O)CCCCC1 (stereo not drawn)
→ -11, 0.9, 3698, -1, /, -12, 2
N=C(N)n1c(N)nc2ccccc2c1=O
→ -18, 4.0, 2975, 2, -3, 8, 2
Cc1nn(CC(=O)Nc2cccnc2)c(=O)c2ccccc12
→ -17, 2.5, 2081, 12, -7, 2, -8
O=c1ccccn1Cc1c(Cl)cccc1Cl
→ -17, 5.6, 23028*, 6, -14, 7, 5
CCCC1CCc2c(sc(NC(=O)c3cccs3)c2C(N)=O)C1 (stereo not drawn)
→ -85, 1.0, 10651, 0, 1, 3, 11

Brought forward from above: 2 compounds; new compounds follow.
Each structure is followed by: PrP UTR inh, Sa RN4220 lethal, Autofluor counter, ugtP null kill, BJeLR lethal, Mtb hypoxia inh, Mtb hypoxia inh growth
O=c1ccccn1Cc1c(Cl)cccc1Cl
→ -17, 5.6, 23028*, 6, -14, 7, 5
CCCC1CCc2c(sc(NC(=O)c3cccs3)c2C(N)=O)C1 (stereo not drawn)
→ -85, 1.0, 10651, 0, 1, 3, 11
O=C(CCS(=O)(=O)CCN1CCOCC1)NCNC(=O)CCS(=O)(=O)CCN1CCOCC1
→ -5, -0.8, 3278, 0, -3, -2, 3
COc1cc2c(cc1NC(=O)/C=C/c1ccc([N+](=O)[O-])cc1)oc1ccccc12
→ -11, /, 10398, /, -6, /, /
O=C(NCc1ccco1)N1c2ccccc2Sc2ccccc21
→ -23, -3.4, 11390, -5, -4, 0, 6
COc1ccccc1-c1nc(-c2ccncc2)no1
→ -51, 6.0, 8177, -8, -4, 15, 6
CCC(C)Sc1cc(-c2nc3ccc(C)cn3c2NCc2ccccc2)ccc1OC (stereo not drawn)
→ 0, 19, 3733&4719, -19, 5, 11, 14
Cc1ccccc1C(=O)O/N=C(\N)c1ccccc1
→ 56*, 5.0, 3414, 1, 1, 3, 9
COc1ccc(C)cc1S(=O)(=O)NC1CCCC1
→ -1, 6.1, 3104, -4, -8, 12, 3
Cc1cc2ccccn2c1C(=O)c1ccc([N+](=O)[O-])o1
→ -37, 26, 3885, 19, -6, 7, 8
CN(C)N1C(=O)c2c(Cl)c(Cl)c(Cl)c(Cl)c2C1=O
→ -25, 6.3, 2881, 14, /, 10, 10
CN(C)N1C(N)=C(C#N)C(c2cccnc2)C2=C1CC(C)(C)CC2=O (stereo not drawn)
→ 0, 3.1, 4398, 0, 0, /, /
COCCNC(=O)Cn1nc(C)c([N+](=O)[O-])c1C
→ -11, 5.8, 3230, 5, -1, 6, 4
O=C(O)CCCNS(=O)(=O)c1ccc(Br)s1
→ -23, 1.8, 10275, 1, -4, 4, 2
N/C(=N\OC(=O)c1ccccc1F)c1ccc([N+](=O)[O-])cc1
→ -98, /, 3877, /, 4, /, /
CC(C)COP(=O)(OCC(C)C)C(Nc1ccccc1)c1ccccc1 (stereo not drawn)
→ -8, -1.0, 6150, -16, 3, 5, 3
CC(OC(=O)c1cccs1)C(=O)NC1CCCCC1C (stereo not drawn)
→ -17, 2.5, /, 3, /, 9, 7
O=C(CCC1CCCC1)NNC(=O)c1cc2ccccc2cc1O
→ -28, 0.7, 3699, 12, 1, 12, 6
Cc1ccc(S(=O)(=O)NCCC(=O)OCC(=O)N(Cc2ccccc2)C(C)(C)C)cc1
→ -4, 2.9, 5525, 6, 5, 6, 9
COc1cc(CCN2C(=O)c3cccc4cccc(c34)C2=O)c(S(=O)(=O)N2CCC(C)CC2)cc1OC
→ -11, 5.9, 2144, -2, -8, 7, 1
O=C(Nc1ccc(Cl)c(Cl)c1)C1CCN(C(=O)c2ccco2)CC1
→ -11, 1.5, 6428, -8, 1, 0, 2
CN(c1ncc(C(F)(F)F)cc1Cl)N1C(=O)c2cccc([N+](=O)[O-])c2C1=O
→ -23, 1.4, 4690, 2, 0, 5, 6
CCn1c(=O)cc(SCC(=O)NCCCN2CCN(c3ccccc3F)CC2)c2ccccc21
→ -11, 2.8, 20693*, -1, 7, 5, 10
Cc1cc(C)cc(NC(=O)CSc2n[nH]c(-c3cccnc3)n2)c1
→ -17, -2.8, 3909, 2, -18, 6, -1
O=C(COC(=O)c1ccc(F)cc1Cl)NC1CCCCCCC1
→ -14, 7.6, 3932, -1, /, 14, 23
CC(C)C(NS(=O)(=O)c1ccccc1)C(=O)OCn1nnc2ccccc2c1=O (stereo not drawn)
→ /, 4.9, /, -4, /, -2, -5
Cn1cc(Br)c(C(=O)Nc2ccc3c(C(F)(F)F)cc(=O)oc3c2)n1
→ -23, 2.3, 6247, 3, /, -2, 3
Cn1cnc([N+](=O)[O-])c1SCC(O)CCl (stereo not drawn)
→ -38, 5.1, 4435, 17, 6, 4, 1
CCN(CC(=O)Nc1ccc(NC(C)=O)cc1)C(=O)CCCc1nc2ccccc2c(=O)[nH]1
→ -11, 1.9, 5060, -1, 2, -2, -2
